Mtb betalactam = beta-lactam sensitization of Mtb H37Rv. M. tuberculosis H37Rv growth with meropenem, percent inhibition; hits of this screen are not shown here. inhibition, % at 25 µM. actives 0.27% (n = 330,000). AID 434955;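 active = about 74% or more and at least 40 points above the plate without the antibiotic, then above 30% in a dose series; inconclusive = first-round hits that could not be retested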;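 also: growth measured after seven days incubation then overnight dye step; 0% = bacteria only wells and 100% = bacteria with antibiotic; twin plates without the antibiotic show which effects depend on it; some results filed as inactive read as strong as hits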
An asterisk follows results filed as active; u = inconclusive.

| molecule | Mtb betalactam |
| --- | --- |
| CCCn1c(N)c(C(=O)CSc2nc3ncc(Cl)cc3[nH]2)c(=O)n(C)c1=O | 3.0 |
| Cc1c(NC(=O)COC(=O)Cn2cc(C(F)(F)F)ccc2=O)cccc1[N+](=O)[O-] | 4.1 |
| C[C@H](CO)N1C[C@H](C)[C@@H](CN(C)S(=O)(=O)c2ccccc2)Oc2c(NC(=O)Nc3ccccc3)cccc2C1=O | 3.4 |
| COc1cc(S(C)=O)ccc1-c1nc2ncccc2[nH]1 (stereo not given) | -1.6 |
| O=C(COC(=O)CNC(=O)c1ccco1)Nc1ncc(Cl)cc1Cl | -7.0 |
| CN(CC(=O)NCC1CCCCC1)CC(=O)Nc1ccccc1Br | -3.6 |
| CCN(C(=O)CN1CCCCCC1)c1c(N)n(Cc2ccccc2)c(=O)[nH]c1=O | -10.4 |
| Cc1cccc(C)c1NC(=O)CN(C)C(=O)[C@H](C)NC(=O)c1ccco1 | -4.4 |
| Cc1ccc2nc(SCC(=O)Nc3cccnc3Cl)[nH]c2c1 | 1.4 |
| CCN(CCS(=O)(=O)c1ccc(Cl)cc1)Cc1nc2ccccc2c(=O)[nH]1 | -5.1 |
| COc1nc(N)nc(N)c1NS(=O)(=O)c1ccc(C)cc1 | -6.3 |
| COc1ccc(-c2ccc3c(c2)c(C#Cc2ccsc2)c(-c2cc(OC)cc(OC)c2)n3C)cc1 | -7.1 |
| O=C(CN1C(=O)COc2ccc(Cl)cc21)Nc1nccs1 | 0.2 |
| COc1cc(/C=C/C(=O)OCC(=O)Nc2cc(S(=O)(=O)N3CCCC3)ccc2Cl)cc(OC)c1OC | -1.5 |
| CC(C)C[C@@H](C)C(=O)N(Cc1ccccc1)c1ccccc1 | 0.8 |
| O=C(OCC(=O)N1CCCCCC1)c1ccc(Br)c(S(=O)(=O)N2CCOCC2)c1 | -1.6 |
| Cc1cc(C(=O)OCC(=O)NCc2ccc(F)cc2)c2ccccc2n1 | -7.4 |
| Cc1nnc(SC(C)C(=O)Nc2ccc3ccccc3c2)n1C (stereo not given) | 2.6 |
| Cc1cc(S(=O)(=O)N2CCCC(N(C)CCc3ccccn3)C2)c(C)s1 (stereo not given) | u |
| CCc1nnc(NC(=O)c2cc(-c3ccc(C)o3)nc3ccccc23)s1 | 0.6 |
| COc1cc(OC)cc(C(=O)NCCCCNC(=O)c2cc(OC)cc(OC)c2)c1 | 2.6 |
| CC(NC(=O)CN(C)CC(=O)Nc1ccc(Cl)cc1)c1ccc(F)cc1 (stereo not given) | 3.9 |
| COc1ccccc1N1CC(C(=O)NCCN2C(=O)S/C(=C\c3cccnc3)C2=O)CC1=O (stereo not given) | -2.4 |
| CC1CCCCC1NC(=O)COC(=O)Cc1ccc(Cl)cc1 (stereo not given) | -0.2 |
| CCCCn1nc(C(=O)Nc2cc(C(F)(F)F)ccc2N2CCOCC2)ccc1=O | 7.3 |
| CCCN(C(=O)/C=C/c1nc2ccccc2s1)C1CCS(=O)(=O)C1 (stereo not given) | -3.9 |
| O=C(COC(=O)c1ccc[nH]c1=O)Nc1ccc(N2CCCCC2)cc1 | -6.2 |
| CC(=O)c1ccc(-c2ccc(C(=O)Nc3nc(-c4ccccn4)cs3)o2)cc1 | 92.7 |
| O=C(COc1ccc2ccc(=O)oc2c1)Nc1ccc(N2CCCCC2)cc1 | -7.2 |
| C[C@H](CO)N1C[C@H](C)[C@@H](CN(C)C)Oc2c(NC(=O)c3ccncc3)cccc2C1=O | -5.2 |
| O=C(c1cc2c(s1)CCCC2)N1CCN(CCO)CC1 | -3.6 |
| COc1ccc(-c2nnc(SC(C)C(=O)NC3CC3)o2)cc1 (stereo not given) | 4.0 |
| NS(=O)(=O)c1cccc(NC(=O)CSc2nnc3n2CCCCC3)c1 | -4.1 |
| Cc1ccc(C)c(N2CCN(C(=O)C3CCC3)CC2)c1 | -3.1 |
| CCc1cccc(OCC(=O)Nc2cc(S(=O)(=O)N3CCOCC3)ccc2N2CCCC2)c1 | -5.0 |
| CCN1CCN(C(=O)/C(=C/c2cccs2)NC(=O)c2ccc(C)c(C)c2)CC1 | 2.4 |
| COc1ccc(C2=CC(=O)C[C@H](c3ccc(OC)c(OC)c3)C2)cn1 | -1.6 |
| Cc1noc(C)c1S(=O)(=O)N1CCCN(C(=O)/C=C/c2ccccc2F)CC1 | -4.8 |
| Cn1c(CC(=O)Nc2ccccc2)nnc1SCC(=O)NC1=NCCS1 | -7.2 |
| O=C(CN1C(=O)NC2(CCCCC2)C1=O)Nc1ccc(N2CCCCC2)cc1 | 0.5 |
| O=C(NN=Cc1cc(Br)c(O)c(Br)c1)c1ccccc1NS(=O)(=O)c1cccs1 | 7.0 |
| O=C(C[C@@H]1C/C=C\C[C@@H](Cc2ccc(F)cc2)C(=O)OC[C@@H]2CCCN2C1=O)NCCO | -1.2 |
| COc1ccc(Cl)cc1C(=O)NNC(=O)CNC(=O)c1ccc(C)s1 | 5.8 |
| COC(=O)[C@]1(Cc2ccccc2)N[C@H](CN(C)S(=O)(=O)c2ccc(F)cc2)[C@@H]2C(=O)N(C)C(=O)[C@@H]21 | -2.6 |
| COc1ccc(C(=O)Nc2cc(S(=O)(=O)N3CCCCC3)ccc2OC)cc1 | 4.2 |
| O=C(NCCc1ccccn1)c1nc(Cn2ccc([N+](=O)[O-])n2)no1 | -1.5 |
| Cc1cnc(C(=O)OCC(=O)Nc2ccc(C)c(S(=O)(=O)N3CCOCC3)c2)cn1 | -3.7 |
| Cc1ccc(C(=O)NC(=S)N2CCCCCC2)cc1 | 86.8 |

Remaining list, next part.
mol | Mtb betalactam
COc1ccccc1C(=O)NCC(=O)OC(C)C(=O)N(C)C1CCCCC1 (stereo not given) | 2.4
COc1ccccc1/C=C/C(=O)OCC(=O)Nc1ccc(Cl)cn1 | 81.2
O=C(OCC(=O)N(C1CCCCC1)C1CCCCC1)c1ccc(Cl)nc1 | 7.8
CC12CCC(=O)N1C(C(=O)N1CCN(c3cccc(Cl)c3)CC1)CS2 (stereo not given) | -11.8
CCN(C[C@H]1N[C@@](CC)(C(=O)OC)[C@H]2C(=O)N(C)C(=O)[C@@H]12)C(=O)Nc1ccc(OC)cc1 | -2.1
CCC(C)Sc1ccc(-c2nc3ccc(Cl)cn3c2NCc2ccccc2)cc1 (stereo not given) | 5.3
C[C@H](O)C(=O)C1=Nc2c(nc(N)[nH]c2=O)NC1 | -2.5
CSCCC(NC(=O)c1ccccc1Br)C(=O)NNC(=O)c1cc(C)oc1C (stereo not given) | -4.5
O=C1N[C@@H](c2ccccc2)COC(=O)[C@H](Cc2ccc(F)cc2)C/C=C\C[C@@H]1CC(=O)N(CCO)Cc1ccccc1 | 0.9
COc1ccc(NS(=O)(=O)c2cccc(C(=O)N3CCN(C(=O)c4ccco4)CC3)c2)cc1 | -6.8
CC(O)CC(C)O (stereo not given) | 6.1
CCN(C[C@H]1N[C@@](Cc2ccccc2)(C(=O)OC)[C@H]2C(=O)N(C)C(=O)[C@@H]12)S(=O)(=O)c1ccc(OC)cc1 | 4.2
CCCCN(C(=O)C1CCCC1)c1c(N)n(CC(C)C)c(=O)[nH]c1=O | -1.7
O=C(O)c1nn(CCOc2ccc(Br)cc2)c(=O)c2ccccc12 | 1.1
CSc1ncccc1C(=O)Nc1ccc(S(=O)(=O)N2CCCC2)cc1 | -11.4
Cc1cccc(OCC(=O)NCc2nnc3ccc(C(F)(F)F)cn23)c1C | 2.4
O=C(COC(=O)c1ccc(F)cc1Cl)NC(=O)NC1CCCC1 | 6.3
NS(=O)(=O)c1ccc(CCNC(=S)NC(=O)c2ccccc2Br)cc1 | -4.6
CN(CC(=O)Nc1ccc(F)c(F)c1F)C(=O)CCN1C(=O)C2CCCCC2C1=O (stereo not given) | -5.3
O=C(COC(=O)Cn1cnc2ccccc21)Nc1ccc(OC(F)F)cc1 | 4.8
O=C(COC(=O)c1ccc(S(=O)(=O)N2CCCC2)cc1)NCCc1ccc(F)cc1 | -3.8
Cc1cccc(NC(=O)[C@@H]2CCCN2S(=O)(=O)c2ccc(Cl)cc2)c1 | -6.5
C[Se]C[C@@H](N)C(=O)O | 82.1
Cc1ccc(NC(=O)Cc2nc(-c3c[nH]c(C(=O)N4CCCC4)c3)cs2)c(C)c1 | -0.7
COc1cc(C(C)=O)ccc1OCC(O)CN1CCN(c2ccccn2)CC1 (stereo not given) | -14.5
Cc1ccc(C(=O)Nc2nc(-c3ccccn3)cs2)cc1S(=O)(=O)N1CCOCC1 | 85.8
O=C(CCC(=O)c1cccs1)NCc1ccccc1Cl | -1.8
CSCCC(NC(=O)c1ccccc1Cl)C(=O)N1CCN(C(C)=O)CC1 (stereo not given) | 0.4
O=C(CCNS(=O)(=O)c1ccc(Br)cc1)NC1CCC(O)CC1 (stereo not given) | -10.6
COc1ccc(CNc2nc(C)cc(C)c2C#N)cc1 | 4.0
COc1cc(C(=O)NCCOc2ccc(Cl)cc2)ccc1OCc1c(C)noc1C | -3.2
COc1ccc(S(=O)(=O)Nc2cccnc2)c(C)c1C | -12.4

Another view of some results above.
SMILES: CSCCC(NC(=O)c1ccccc1Cl)C(=O)N1CCN(C(C)=O)CC1 (stereo not given)
  Mtb betalactam: 0.4
SMILES: O=C(CCNS(=O)(=O)c1ccc(Br)cc1)NC1CCC(O)CC1 (stereo not given)
  Mtb betalactam: -10.6
SMILES: COc1ccc(CNc2nc(C)cc(C)c2C#N)cc1
  Mtb betalactam: 4.0
SMILES: COc1cc(C(=O)NCCOc2ccc(Cl)cc2)ccc1OCc1c(C)noc1C
  Mtb betalactam: -3.2

Next results
mol | Mtb betalactam
CC(=O)c1nccs1 | -2.0
O=S(=O)(c1ccc(NCCOCCO)nc1)N1CCCCC1 | -1.4
COc1ccc(Cl)cc1C(=O)NCCN1CCOCC1 | -6.6
CCN(c1ccccc1)S(=O)(=O)c1ccc(C(=O)N2CCOCC2)cc1 | -6.4
COc1ccc(/C=N/Nc2nc(-c3ccc(C)cc3)c(C#N)c(=O)[nH]2)cc1 | 91.2
NC(=O)C1CCN(C(=O)c2ccc(-c3ccccc3Cl)o2)CC1 | -2.9
COc1ccc(Cl)cc1NC(=O)CN(C)CC(=O)N(CC(C)C)c1c(N)n(CC(C)C)c(=O)[nH]c1=O | -7.2
CC1CCCC(NC(=O)COC(=O)[C@@H](NC(=O)c2ccc(F)cc2)C(C)C)C1C (stereo not given in full) | -3.1
CN(C(=O)C1CCCN1S(=O)(=O)c1ccc(Cl)cc1)c1ccccc1 (stereo not given) | -2.5
CC(C)[C@H](CN1CCC[C@H]1CN1C(N)=NC[C@H]1C(C)C)N1C[C@@H](Cc2ccccc2)N(CCCC2CCCC2)C1=N | 99.9
Cc1cc(OCC(=O)OCC(=O)c2c(N)n(C)c(=O)n(C)c2=O)ccc1Cl | 10.0
Cc1noc(C)c1COc1ccccc1C(=O)Nc1ccc(C(N)=O)cc1 | -5.1
O=[N+]([O-])c1ccccc1S(=O)(=O)Nc1cccc(S(=O)(=O)N2CCCC2)c1 | 0.5
O=C(Nc1ccc(C(=O)N2CCC(N3CCCC3)CC2)cc1)c1ccc(Br)o1 | -4.7
CC1(C)C(=O)Nc2ccccc2N1C(=O)COC(=O)CSc1ccc(F)cc1 | -4.2
CCCCC1(C)NC(=O)N(CC(=O)Nc2cc(S(=O)(=O)N3CCOCC3)ccc2Cl)C1=O (stereo not given) | -6.1
Cc1cc(C)nc(SCC(=O)c2ccc(F)cc2)n1 | -7.2
O=C(CSc1nnc(C2CC2)n1C1CC1)c1ccc(F)c(F)c1 | -0.9
Cc1ccc(C(=O)Nc2cccc(C(=O)N/N=C/c3ccc(F)cc3)c2)cc1 | -5.1
Cc1ccc(NC(=O)CSc2nnc(C)n2C2CC2)cc1S(=O)(=O)N1CCOCC1 | 16.4
O=C(NCCNS(=O)(=O)c1ccccc1)c1ccc([N+](=O)[O-])cc1 | -4.7
Cc1ccc(NC(=O)CN2C(=O)NC3(CCCC3)C2=O)cc1S(=O)(=O)N1CCCCC1 | -0.3
O=C(COC(=O)c1ccccc1NCCO)NCC1CCCCC1 | -4.3
O=C(CSc1nnc(NC2CC2)s1)c1ccc[nH]1 | 1.5

A different layout for some results above.
Cc1ccc(NC(=O)CSc2nnc(C)n2C2CC2)cc1S(=O)(=O)N1CCOCC1
  Mtb betalactam: 16.4
Cc1ccc(C(=O)Nc2cccc(C(=O)N/N=C/c3ccc(F)cc3)c2)cc1
  Mtb betalactam: -5.1

(next part)
mol | Mtb betalactam
CC(=O)c1ccccc1-c1csc2ncnc(Sc3nnnn3C)c12 | -1.8
COCCn1c(SCC(=O)Nc2ccc3c(c2)OCCO3)nnc1-c1ccncc1 | -7.4
O=C(CNC(=O)c1ccccc1F)NCc1ccccn1 | -3.6
CN(CC(=O)Nc1ccc(F)cc1)C(=O)CN1C(=O)c2ccccc2C1=O | -1.8
COc1cccc(NC(=O)COC(=O)c2cc(=O)c3ccccc3o2)c1 | -11.3
O=C(NCc1cc2ccccc2[nH]1)c1ccccc1F | 0.5
CC1CCCCC1NC(=O)COC(=O)c1ccc2ncsc2c1 (stereo not given) | -0.3
COc1ccccc1S(=O)(=O)NCc1ccc(C(=O)NC2CCC(O)CC2)cc1 (stereo not given) | 3.0
Cc1ccc(C(=O)CSc2nnc3n2CCCCC3)s1 | -4.4
CN(CC(=O)Nc1ccc(Cl)cc1)C(=O)c1sccc1-c1ccccc1 | -0.1
Cc1ccc(S(=O)(=O)Nc2nc3ccccc3nc2N2CCOCC2)cc1 | 1.3
COc1ccc(OCc2cc(C(=O)NCC(C)Oc3cccnc3)no2)c(Cl)c1 (stereo not given) | u
CN(C(=O)COC(=O)/C=C/c1ccc2ccccc2n1)c1c(N)n(Cc2ccccc2)c(=O)[nH]c1=O | 4.0
CC1CCN(c2ccc3c(c2)S(=O)(=O)c2cccc(C(=O)O)c2C3=O)CC1 | -0.6
CCN(C(=O)COc1ccc(F)cc1Br)c1c(N)n(Cc2ccccc2)c(=O)[nH]c1=O | -9.5
N#CCCN(C(=O)COC(=O)c1ccc2ccccc2n1)c1ccccc1 | 0.9

Bioassay records deposited in PubChem by Southern Research Specialized Biocontainment Screening Center.

Only part of the results is shown (hit frequency here may not be typical).
